SARS PLP yeast: SARS-CoV PLP inhibition in yeast; S. cerevisiae expressing SARS-CoV PLpro, growth rescue; control for the full effect not named in the record; Potency, µM (series often up to 32.9 µM), for inactives: top-dose activity, positive = growth rescue; actives 0.19% (n = 330,000); AID 485353; also: 0% is about no effect; nearly all actives have a fitted effect of over 55% in size; growth read by luminescence after 48 h
MARV entry inh: inhibitors of Marburg virus binding or cell entry | Marburg virus pseudotyped entry inhibition, cell reporter; control for the full effect not named in the record; about a third of the inactives were read at about 46 µM | Potency, µM (doses to about 37.8 µM), without a hit: top-dose activity change, negative = inhibition, hits mostly inhibitors | actives 1.8% (n = 300,000) | AID 540276; active = well fitted inhibition curve with a large enough effect; inconclusive = small, poorly fitted or top-dose-only effect, or effect the other way; inactive = flat fitted curve, though single readings scatter; tested in HEK293 cells; about a fifth of its hits are not listed in these tables; also: % is scaled to controls: 0 for no effect and ±100 for the full control effect; luciferase read-out
StopGo reporter: FMDV 2A StopGo reporter, luciferase signal. human cells with a luciferase reporter of 2A StopGo recoding; control for the full effect not named in the record. Potency, µM (top dose mostly 57.9 µM), for the others: at the highest dose signal change, negative = less light. actives 1.2% (n = 410,000). AID 1159524; active = well fitted falling curve with a large enough effect; inconclusive = small, poorly fitted or top-dose-only effect; inactive = no such curve, though single readings can be large or run the other way; tested in HEK293T cells; also: % is scaled to controls: 0 for no effect and ±100 for the full control effect; nearly all actives have a fitted effect of over 45% in size; luciferase light after 4 h
Lassa entry inh: inhibitors of Lassa virus binding or cell entry; Lassa virus pseudotype entry inhibition, cell reporter; control for the full effect not named in the record; actives 1.2% (n = 300,000); AID 540256; Potency, µM (doses to about 37.9 µM), for the others: at the highest dose activity change, negative = inhibition, hits mostly inhibitors; active means well fitted inhibition curve with a large enough effect; inconclusive means small, poorly fitted or top-dose-only effect, or effect the other way; inactive means flat fitted curve, though single readings scatter; tested in HEK293 cells; also: % is scaled to controls: 0 for no effect and ±100 for the full control effect; nearly all actives have a fitted effect of over 50% in size; luciferase read-out
Cruzain noTriton: blocks cruzain activity in detergent-free assay; actives 2.3% (n = 200,000); P25779; Potency, µM, for inactives: max response, negative = inhibition, usual class: inhibitors; purified cruzain, Z-FR-AMC fluorescence, no detergent; active = well fitted curve in the direction sought with a large enough effect; inconclusive = small, poorly fitted or top-dose-only effect, or another doubt; inactive = no such curve, though single readings can be large; an effect the other way counts as inactive or inconclusive;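 also: plate controls were enzyme without inhibitor for no effect and buffer without enzyme for full effect; nearly all actives have a fitted effect of over 40% in size; top concentration of the series not given in the record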
Target sequence (P25779 123-467 limits assumed): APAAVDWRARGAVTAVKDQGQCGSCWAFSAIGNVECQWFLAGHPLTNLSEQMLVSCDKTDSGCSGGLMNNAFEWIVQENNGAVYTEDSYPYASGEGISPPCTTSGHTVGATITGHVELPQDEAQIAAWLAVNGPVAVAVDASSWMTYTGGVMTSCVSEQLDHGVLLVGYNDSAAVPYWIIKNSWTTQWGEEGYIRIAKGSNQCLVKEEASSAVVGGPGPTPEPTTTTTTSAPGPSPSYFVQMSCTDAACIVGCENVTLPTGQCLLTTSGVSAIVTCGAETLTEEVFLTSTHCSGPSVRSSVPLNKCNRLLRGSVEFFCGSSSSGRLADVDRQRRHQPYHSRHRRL
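Purified cruzain at 1.5 nM, pre-incubated 15 min with compound at room temperature in 100 mM sodium acetate pH 5.5, 5 mM DTT, 0.00005% Triton X-100. Reaction started with 2 uM Z-FR-AMC; AMC fluorescence increase over 60 s gives rate.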
Cruzain inh Det: blocks cruzain activity in presence of Triton detergent | P25779 | purified cruzain, Z-FR-AMC fluorescence, 0.01% Triton | Potency, µM, for the others: max response, negative = inhibition, usual class: inhibitors | actives 0.43% (n = 200,000); active = well fitted curve in the direction sought with a large enough effect; inconclusive = small, poorly fitted or top-dose-only effect, or another doubt; inactive = no such curve, though single readings can be large; an effect the other way counts as inactive or inconclusive;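 also: plate controls were neutral wells for no effect and buffer without enzyme for full effect; nearly all actives have a fitted effect of over 40% in size; top concentration of the series not given in the record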
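Compounds were screened in titration against cruzain (1.5 nM) with 0.01% Triton X-100 to counter colloidal aggregation. Activity was the AMC fluorescence increase over 60 s after adding 2 uM Z-FR-AMC at pH 5.5.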
NS1 function inh: influenza NS1 inhibition | actives 0.4% (n = 270,000) | Potency, µM (top dose mostly 46.1 µM), without a hit: at the top dose activity, positive = more growth | S. cerevisiae slowed by influenza A NS1, growth recovery by OD600; also: actives are rising curves; nearly all actives have a fitted effect of over 50% in size
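A cell-based growth assay was used: compounds that relieve NS1-induced slow growth of budding yeast raise OD600. Assay medium was yeast nitrogen base with ammonium sulphate and -URA supplement, pH 6.0, with 2% galactose.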
RE007 growth inh: less growth of the S. pombe RE007 Vpr strain; S. pombe RE007 Vpr strain, BacTiter-Glo ATP luminescence, 24 h; control for the full effect not named in the record; Potency, µM (top dose mostly 92.2 µM), for the others: at the highest dose activity change, negative = less growth; actives 0.21% (n = 360,000); AID 651644; active = well fitted falling curve with a large enough effect; inconclusive = small, poorly fitted or top-dose-only effect; inactive = no such curve, though single readings can be large or run the other way;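 also: % is scaled to controls: 0 for no effect and ±100 for the full control effect; nearly all actives have a fitted effect of over 50% in size; the assay follows cell death caused by Vpr and the record does not say whether a fall means rescue or toxicity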
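Fission yeast RE007 carrying one integrated HIV-1 vpr copy, seeded at OD 0.01 in PMG+AL medium with 23 nL pinned compound. Grown 24 h at 30 degrees; viability read by BacTiter-Glo luminescence after 5 min.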
* = called active by the depositor; ? = inconclusive; · = no result given; & = joins results of further samples; [ ] = another dose, or the depositor's remark. Unless noted, calls follow the shape of the dose curve; as a rule, active means well fitted rising curve with a large enough effect; inconclusive means small, poorly fitted or top-dose-only effect; inactive means no such curve, though single readings can be large or run the other way. Potency is read from the fitted curve at half-maximal effect.

SMILES	SARS PLP yeast	MARV entry inh	StopGo reporter	Lassa entry inh	Cruzain noTriton	Cruzain inh Det	NS1 function inh	RE007 growth inh
CCOc1ccc(NC(=O)CC2SC(N)=NC2=O)c([N+](=O)[O-])c1 (stereo not drawn)	0%	?	18%	17%	·	·	·	1%
O=C1CC(c2ccccc2)CN1C(=O)c1cccnc1 (stereo not drawn)	-1%	·	-7%	·	·	·	-5%	1%
COc1cc(S(=O)(=O)Nc2ccccn2)ccc1F	-4%	-2%	57%[activator]	-1%	-2%	3.2%	-1%	19%
COP(=O)(CC(=O)O)c1ccccc1 (stereo not drawn)	9%	?	7%	-1%	-9%	2.9%	-3%	0%
CCN(CC)c1c(-c2ccccc2)c2cc(C)ccc2[nH]c1=O	18%	·	-10%	·	-15%	-4.7%	-7%	13%
Cc1ccc(S(=O)(=O)CCC(=O)OCC(=O)N2c3ccccc3NC(=O)C2(C)C)cc1	1%	4%	2%	-6%	·	·	·	40%
CN=C(Nc1ccc(C)c(C)c1)SC1CC(=O)N(c2ccc(OC)cc2)C1=O (stereo not drawn)	0%	·	-7%	·	·	·	-1%	-14%
O=C1CC(c2ccccc2)Oc2ccccc21 (stereo not drawn)	·	·	15%&29%	·	-1%	0.2%	·	-9%
C=CCn1c(Cc2cccs2)nnc1SCC(=O)c1ccc2ccccc2c1	-25%	0%	5%	?	-4%	-8.2%	-10%	-16%
COc1cccc(CNC(=O)C2CCN(S(=O)(=O)N3CC(C)CC(C)C3)CC2)c1 (stereo not drawn)	13%	-20%	·	7%	5%	0.7%	4%	0%
COc1cc(C(=S)N2CCOCC2)cc(OC)c1OS(=O)(=O)c1ccc(C)cc1	-3%	·	0%	·	·	·	10%	1%
CCN(CC)S(=O)(=O)c1ccc(N2CCCCC2)c(NC(=O)C2CCN(C(=O)c3ccc(F)cc3)CC2)c1	-3%	?	-22%	-14%	·	·	·	6%
C[C@@H]1C(=O)O[C@@H]2[C@H](O)C34[C@@H]5OC(=O)C3(O[C@H]3OC(=O)[C@H](O)C34[C@H](C(C)(C)C)[C@H]5O)[C@@]12O (stereo partly drawn)	14%	6%	-13%	3%	0%	2.6%	26%	11%
O=c1[nH]c2ccccc2o1	-2%	12%	-8%	-7%	7%	-2.1%	7%	7%
COc1ccc(Nc2nc3ccc(C)cc3nc2-n2nc(C)cc2C)cc1Cl	·	-1%[46.1 µM]	-9%	14%[46.1 µM]	-12%	-1.2%	·	·
CCOC(=O)N1CCC(NC(=O)c2cnn(-c3cccc(F)c3)c2-n2cccc2)CC1	·	·	?	-1%[46.1 µM]	-1%	3.1%	·	·
Cc1ccc(C)c(NC(=O)C2CC=CCC2C(=O)O)c1 (stereo not drawn)	5%	8%	-10%	-21%	2%	-1.5%	-4%	10%
CCN1CCN(C(=S)c2ccc([N+](=O)[O-])cc2)CC1	7%	?	-21%	18%	-4%	-3.3%	11%	·
O=C(Nc1ccccc1-c1nc2ccccc2s1)c1cc(Cl)cc(Cl)c1	·	·	13%	5%[46.1 µM]	-6%	-0.8%	·	·
CC1(C)CC(NC(=O)CCc2nnc(CCCCc3ccccc3)o2)CCO1 (stereo not drawn)	1%	·	-13%	·	·	·	-3%	12%
C=CCN(C1CCCCC1)S(=O)(=O)c1ccc2c(c1)oc(=O)n2C	-13%	·	16%	·	-11%	-0.7%	-49%	20%
CC(=O)Oc1ccc2c(c1)OC(c1ccccc1)CC21CC(C)(C)NC(=O)N1 (stereo not drawn)	2%	?	-31%	-4%	7%	-7.3%	-12%	·
O=c1onc(-c2ccc(Cl)cc2)n1Cc1ccc(F)cc1	0%	-3%	-15%	10%	-3%	-2.7%	-12%	11%
O=C(c1ccc(Cl)cc1)c1oc2ccccc2c1CS(=O)c1ccc(Cl)cc1 (stereo not drawn)	3%	?	13%	-2%	-20%	-1.9%	-23%	-4%
Cc1cccc(N(C)c2cc(C)nc3ncnn23)c1	-3%	7%	-8%	-2%	0%	-2.0%	10%	22%
(listing goes on)
SMILES	SARS PLP yeast	MARV entry inh	StopGo reporter	Lassa entry inh	Cruzain noTriton	Cruzain inh Det	NS1 function inh	RE007 growth inh
O=C(/C=C/c1cccc([N+](=O)[O-])c1)N1CCN(Cc2ccc3c(c2)OCO3)CC1	?	5%	-27%	-1%	8%	-4.6%	7%	-13%
Cc1ccc(NC(=O)CSc2nc3nc(C)c(Cc4ccccc4)c(C)n3n2)cc1	·	·	-22%	-2%[46.1 µM]	4%	0.2%	·	·
CN(C)C(=O)Oc1cccc(NC(=O)c2ccccc2C(F)(F)F)c1	0%	-5%[46.1 µM]	-7%	16%[46.1 µM]	·	·	0%	13%
C[C@]12CC[C@H](O)CC1C(=O)CC1C2CC[C@@]2(C)C1CC[C@@H]2O (stereo partly drawn)	-4%	29%	-13%	2%[46.1 µM]	·	·	·	15%
O=C(COc1ccc(Cl)cc1Br)N1CCN(c2ccccc2)CC1	?	-2%	0%	-14%	0%	-2.0%	-4%	5%
O=C(CSc1nnc(SCc2ccc(F)cc2)s1)Nc1ccc(C(=O)O)cc1	0%	-4%[46.1 µM]	-13%	-1%	·	·	-3%	-17%
CC(NS(=O)(=O)c1ccc2[nH]c(=O)c(=O)[nH]c2c1)C(=O)O (stereo not drawn)	-1%	16%	-16%	-2%	·	·	-3%	-3%
CC1CN=C(N(C(=S)Nc2ccccc2)c2cccc(C(F)(F)F)c2)S1 (stereo not drawn)	0%	?	-1%	10%	·	·	-4%	1%
CCC(=O)Nc1ccc(N2CCN(CC)CC2)c(Cl)c1	?	29%	-18%	14%	-4%	2.3%	13%	-7%
Cc1ccc(C(=O)NNC2CC(=O)N(c3ccc4c(c3)OCCO4)C2=O)cc1 (stereo not drawn)	-1%	?	7%	6%[46.1 µM]	·	·	·	-8%
O=C(c1ccccc1-c1nc(-c2ccccc2)no1)N1CCCC1	11%	29%	50%[activator]	3%	1%	-3.2%	-8%	15%
CCn1cc(C(=O)N2CCCC(N3CCN(c4ccccc4C)CC3)C2)cn1 (stereo not drawn)	2%	·	33%[activator]	·	·	·	-9%	-3%
Cc1ccc(C)c(NC(=O)Cn2c(=O)n(Cc3ccco3)c(=O)c3ccc(C(=O)NC4CCCC4)cc32)c1	·	2%[46.1 µM]	-14%	25%[46.1 µM]	-7%	-0.1%	·	·
COc1cc(NC(=S)N2CCCC(C)C2)c(OC)cc1Cl (stereo not drawn)	1%	-2%[14.2 µM]	10%	9%	·	·	-2%	-11%
CC(=O)Nc1c(NCC(C)C)c2ccccc2oc1=O	-4%	3%[46.1 µM]	6%	-13%	2%	1.4%	-12%	3%
CC(C)CSc1nnc(N)s1	-9%	3%	15%	4%	?	-0.1%	3%	-12%
O=C(CSc1nc(-c2ccc(F)cc2)cs1)NC(=O)NCc1ccco1	-7%	1%	-14%	?	-4%	-3.3%	2%	-11%
O=C(CCC(NC(=O)OCc1ccccc1)C(=O)O)OCc1ccccc1 (stereo not drawn)	-5%	·	-8%	·	·	·	1%	-7%
Cc1ccccc1S(=O)(=O)NC1OC(=O)C(Cl)=C1Cl (stereo not drawn)	-2%	?	?	-8%	-3%	1.4%	-3%	-29%
Cc1nc([N+](=O)[O-])c(NCCO)n1Cc1ccccc1	1%	10%[46.1 µM]	-17%	-23%	·	·	·	-7%
COc1ccc(NC(=O)c2ccc(COc3ccccc3OC)o2)cc1OC	3%	2%[46.1 µM]	?	-6%[46.1 µM]	15%&8%	-6.5%&-4.5%	9%	-30%
Cc1ccccc1C(=O)N/N=C/c1ccncc1	1%	21%	25%	0%	-6%	6.8%	0%	-20%
C=CCn1c(-c2ccccc2)nc2nc3ccccc3nc21	7%	14%	-13%	7%	?	-15%	-5%	-10%
COc1ccc(C(=O)CN2C(=O)c3ccccc3S2(=O)=O)cc1Br	9%	?	-15%	?	·	·	?	7%
O=C(NC1CCSc2ccccc21)c1cc(S(=O)(=O)N2CCOCC2)ccc1F (stereo not drawn)	5%	13%	10%	-6%	·	·	12%	2%
Next records
SMILES	SARS PLP yeast	MARV entry inh	StopGo reporter	Lassa entry inh	Cruzain noTriton	Cruzain inh Det	NS1 function inh	RE007 growth inh
COc1ccc(C(=O)NCC(=O)NCC2(N(C)C)CCCCC2)cc1OC	-1%	0%	-1%	6%	-4%	-0.9%	-5%	-17%
CN1CCN(CCNC(=O)c2cn(Cc3ccccc3F)nn2)CC1	-1%	0%[46.1 µM]	-7%	-6%[46.1 µM]	·	·	5%	-7%
COc1ccc(Cn2nc(-c3ccccc3)c(N3CCCCC3)cc2=O)cc1	-13%	?	?	?	·	·	·	-1%
O=[N+]([O-])c1ccc(NC(c2ccccc2)c2ccc3cccnc3c2O)cc1 (stereo not drawn)	·	1.4µM*	9%	?	·	·	·	-15%
O=C(COc1ccccc1F)Nc1c2c(nn1-c1ccccc1)CS(=O)(=O)C2	-5%	-2%	-23%	1%	·	·	0%	11%
Cc1cc(NC(=O)CCC(=O)N(CC(=O)NC2CCCC2)Cc2ccc(F)cc2)no1	4%	0%&-12%	-16%	0%	18%	1.2%	-6%	-1%
O=c1ccc(NS(=O)(=O)c2ccc(Cl)cc2)cn1Cc1ccc(Cl)c(Cl)c1	4%	-24%	?	?	-12%	-9.2%	19%	?
COc1ccc(NS(=O)(=O)c2cc(NC(=O)C3CCCO3)ccc2N2CCCC2)cc1 (stereo not drawn)	-2%	7%[46.1 µM]	6%	27%[46.1 µM]	·	·	-4%	8%
O=C(CNC(=O)c1ccc(Cl)cc1)NC1CCCCC1	0%	·	48%[activator]	·	·	·	5%	-2%
O=C1OCCN1C(=O)[C@H]1[C@H](c2ccc(Cl)cc2)C(c2cccc(Cl)c2)=NN1c1ccc(Br)cc1	-14%	·	?	·	8.9µM*	-0.2%	·	-3%
COc1ccc(CCNC(=O)C2CCN(S(=O)(=O)c3c(C)noc3C)CC2)cc1OC	·	6%[46.1 µM]	-8%	-1%	10%	1.5%	-22%	2%
